Compound activity: PubChem, Fisher Drug Discovery Resource Center
NPYLR7 agonist: mosquito NPYLR7 agonism. HEK293T NPYLR7/Galpha15, GCaMP6s calcium fluorescence. activation, % at 10 µM. 270,000 tested, 0.15% active; in the data active = activation above about 40%;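 also: 0% = vehicle and 100% = reference agonist at the receptor; some compounds past the cut are filed as inactive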
NPYLR7 agonist max-min: recorded beside NPYLR7 agonist, whose call it bears; activation, %; measured here: Max-Min RFU normalised activation; some inactives read as strong as hits;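 span of the calcium signal over five minutes; 0% = vehicle and 100% = native peptide agonist; compound fluorescence can raise it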
* marks the source's active call; other numbers are inactive results. These rows are one share of the data (hit frequency here may not be typical).

SMILES	NPYLR7 agonist	NPYLR7 agonist max-min
N#CCCNC(=O)c1ccc(-c2ccc(C3CCCCC3)cc2)s1	-9	4
CCOc1ccc2ccccc2c1C(=O)N1CCN(c2nccc(-c3ccc(Oc4ccccc4)cc3)n2)CC1	27	13
O=C(CCN(CCc1ccccc1)c1nc(-c2ccc(F)cc2)nc2ccccc12)NCc1cccc(C(F)(F)F)c1	-1	0
COc1ccc(NC(=O)Cn2cc(C)c3ccccc32)cc1S(N)(=O)=O	4	3
COc1ccc(CC(=O)N2CCCN(c3nc(C4CCOCC4)nc4c3cnn4-c3ccccc3)CC2)cc1	0	4
CSc1cccc(NS(=O)(=O)c2ccc3c(c2)OCCO3)c1	3	1
CS(=O)(=O)NCCc1ccc(C2=NNC(=Nc3ccccc3F)SC2)s1	3	0
O=c1nc(SCc2cccc(C(F)(F)F)c2)nc2ccccn12	7	6
CCCN(Cc1c(-c2ccccc2F)noc1N1CCOCC1)C(=O)c1ccco1	-3	10
Cc1ccc(-c2ccc[nH]c2=O)c(-n2cccn2)c1	-2	-2
COc1ccc2c(c1)CC(=O)NCC2	4	3
CCn1c(C2CCN(C(=O)C(C)n3cncn3)CC2)nn(C)c1=O (configuration not stated)	0	-5
O=C(/C=C/c1ccccc1)NC1CC2CCC(C1)N2CCc1ccc(F)cc1 (configuration not stated)	2	8
O=c1c2cc(Cl)ccc2nc2n1CC/C2=C\c1cc(Cl)c2c(c1)OCCO2	-4	-2
CC(C)c1cc(C2CCN(C(=O)c3ccc4cccnc4n3)CC2)[nH]n1	-2	-4
CN(Cc1cscn1)Cc1cc(-c2ccc3c(c2)OCO3)ccc1OCC(=O)N1CCCCC1c1cccnc1 (configuration not stated)	21	16
COCCC1c2c(cnn2C)C(=O)N1CCOC (configuration not stated)	13	11
CCc1nc2n(n1)C(=O)C(C(c1ccc(C)cc1)N1CCN(CC)CC1)S2 (configuration not stated)	-3	-6
CSCC[C@H](NC(C)=O)C(=O)N1Cc2cnc(-c3ccccc3)nc2C1	-5	-5
COc1ccc(NC(C)=O)cc1NC(=O)CSc1nncn1C	3	-1
COc1cccc(NC(=O)CCC2CCN(C(=O)CCN3CCCC3=O)CC2)c1	4	0
CCCOC1CCCN(C2CCc3ccccc3C2)C1 (configuration not stated)	-11	-11
COc1cc(C)ccc1OS(=O)(=O)Cc1ccccc1C(F)(F)F	8	3
Cc1cc(C)c(NC(=O)c2cncc(Br)c2)c(Cl)c1	-1	-1
COC(=O)CC(C)NC(=O)C1CC1c1ccc(OC)cc1 (configuration not stated)	17	10

The list goes on.
SMILES	NPYLR7 agonist	NPYLR7 agonist max-min
COc1ccc(-c2noc(CCN(CC(O)CN3CCOCC3)C(C)c3ccccc3)n2)cc1OC (configuration not stated)	1	0
O=C(Cn1nnc2ccccc2c1=O)c1ccccc1Cl	-5	-4
COc1ccc(N2C(=O)CC(N(C)Cc3ccc(C)o3)C2=O)cc1OC (configuration not stated)	1	-1
Cc1ccc(C)n1-c1ccsc1C(=O)NCC(=O)N1CCCC1	5	0
Cc1cccc(C(=O)NS(=O)(=O)c2ccc3c(c2)OCCO3)c1C	8	3
O=C(O)C1C2CCC(C2)C1C(=O)Nc1nc2ccc(F)cc2s1 (configuration not stated)	-4	-2
O=C(COc1ccccc1)NC1CCN(c2ccccc2C(=O)NCc2cccnc2)CC1	17	20
Cc1cccc(NC(=O)c2n[nH]c(C(C)C)c2Br)n1	-6	-9
CN(C)CCNC(=O)CCNC(=O)NC12CC3CC(CC(C3)C1)C2	0	-1
Cc1ccc(NC(=O)N2CCC(C(NC(=O)CC(C)C)C(=O)N3CCCCC3)CC2)cc1 (configuration not stated)	15	13
Cc1c(C(C)NC(=O)/C=C/c2ccccn2)cnn1-c1ccccn1 (configuration not stated)	13	4
COC(=O)[C@@H]1C[C@@H](N(C)C)CN1C(=O)c1cccnc1C	-4	-3
CCCCS(=O)(=O)N1CCC(n2nc(C(=O)OCC)cc2C(C)(C)C)CC1	2	3
Cc1cccc(CN(C)C(=O)c2cc(-c3cncnc3)nc3cc(F)ccc23)n1	-1	-7
Cc1ccc(Cl)cc1NC(=O)CC(=O)NCCNc1cccnc1	6	1
CCC(c1nc2ccccc2c(=O)n1-c1cccc(C)c1)N(Cc1ccccc1)C(=O)/C=C/c1ccccc1 (configuration not stated)	-2	-6
CC(=Nc1ccc(Br)cc1)c1ccccc1O	0	-1
C=CCC1(CC=C)CCCN1Cc1nc(-c2cnccn2)no1	-1	-5
Nc1ccc(-c2nc3ccccc3o2)c(Cl)c1	-2	-8
O=C(Cn1nnc([N+](=O)[O-])n1)c1cccs1	11	7
CCN(CC)S(=O)(=O)c1ccc2c(c1)nc(SCc1ccc(OC(C)=O)cc1)n2C(C)C	27	16
COC(=O)C(C)CN(C)C(=O)c1nc(NC(C)=O)ccc1Br (configuration not stated)	-1	-1
CC(C)(C#N)c1ccc(N2C(=O)OCc3cnc4ccc(-c5cnc6ccccc6c5)cc4c32)cc1	21	7
CC(C)(O)C1CCCN1Cc1ccccc1 (configuration not stated)	19	16
COc1ccccc1OC1CN(C(=O)c2cnn3c2CCCC3)C1	8	7

Arranged by number of heavy atoms (lowest first): some entries from above
SMILES	NPYLR7 agonist	NPYLR7 agonist max-min
CC(C)(O)C1CCCN1Cc1ccccc1 (configuration not stated)	19	16
CC(=Nc1ccc(Br)cc1)c1ccccc1O	0	-1
Cc1ccc(C)n1-c1ccsc1C(=O)NCC(=O)N1CCCC1	5	0
COc1ccccc1OC1CN(C(=O)c2cnn3c2CCCC3)C1	8	7
CCCCS(=O)(=O)N1CCC(n2nc(C(=O)OCC)cc2C(C)(C)C)CC1	2	3
O=C(COc1ccccc1)NC1CCN(c2ccccc2C(=O)NCc2cccnc2)CC1	17	20

Continued.
SMILES	NPYLR7 agonist	NPYLR7 agonist max-min
COc1ccc(N(C(=O)C2Cc3cc(Cl)ccc3O2)C(C)C2CC2)cc1 (configuration not stated)	17	17
CC(=O)N1CCN(c2ncccc2CNC(=O)CCOc2ccccc2)CC1	9	4
CS(=O)(=O)c1ccccc1S(=O)(=O)N1CCN(Cc2cc(=O)c(OCc3cccc(F)c3)co2)CC1	-1	4
COc1ccc2oc(=Nc3ccc(F)cc3)c(C(N)=O)cc2c1	-3	-8
O=C(NC1CCN(c2ccccc2C(=O)NCC2CCCO2)CC1)c1ccc(C(F)(F)F)cc1 (configuration not stated)	12	31
CCC(C)N(CC(=O)N(Cc1ccccc1)Cc1sccc1C)C(=O)Nc1ccc(C(C)C)cc1 (configuration not stated)	16	23
O=C(c1ccc(-c2ccccc2Cl)o1)N1CCCC(N2CCOCC2)C1 (configuration not stated)	11	8
c1cc(-c2noc(CN3CCc4sccc4C3C3CC3)n2)cs1 (configuration not stated)	-4	-4
CCCC(C)NC(=O)C1CCN(S(=O)(=O)c2ccc3c(c2)OCCO3)CC1 (configuration not stated)	0	3
COc1cc(CNC(=O)C2CC2)cc(OC)c1OC	8	12
CN1C(=CC=NCC(O)c2ccc([N+](=O)[O-])cc2)C(C)(C)C2C=CC=CC21 (configuration not stated)	-1	0
CN(C)c1ccc(NC(=O)c2cccs2)cc1CN(CC1CCCO1)C(=O)Cc1cccs1 (configuration not stated)	-3	-1
CC(C)CNC(=O)NC(=O)C(F)(F)F	-4	-7
CC(C)C(C)N(Cc1ccc(Cl)cc1)Cc1nc(C(=O)NCc2ccc(F)cc2)co1 (configuration not stated)	4	-8
COc1ccc(CN2C(=O)c3ccccc3C2=O)cc1C(=O)NCC1CCCC1	4	0
O=c1cc(C(F)(F)F)c2ccc(O)cc2o1	57*	50*
On1c(-c2cccc(Cl)c2)nc2c1CCc1nonc1-2	-1	8
O=C1C(=O)N(CCN2CCOCC2)C(c2ccncc2)C1=C(O)c1ccccc1 (configuration not stated)	-1	-4
COC1CCN(c2nc3ccccc3nc2NS(=O)(=O)c2cccc(Cl)c2)CC1	-1	-1
Cc1ccc2c(C)c(C(=O)N3CCCN(c4ncccn4)CC3)oc2c1	-6	-9
Cc1ccc(C2CC2C(=O)Nc2nc(C)c(SCC#N)s2)s1 (configuration not stated)	6	2
CCn1c(C)cc(O)c(C(c2ccc(OC)cc2)c2c(O)cc(C)n(CC)c2=O)c1=O	-1	1
Cc1ccc(-c2nc3n(n2)C(=O)CC(c2cccc([N+](=O)[O-])c2)S3)cc1 (configuration not stated)	7	13
Nn1c(-c2ccncc2)nn2c(=O)c3ccccc3nc12	4	3
CC1(C)[C@H]2CC=C(CCNC3CCN(c4ccc(C(=O)N[C@H]5CCCCNC5=O)cc4)CC3)[C@@H]1C2	1	-3

Part of the list above, bar-delimited:
SMILES | NPYLR7 agonist | NPYLR7 agonist max-min
COc1ccccc1OC1CN(C(=O)c2cnn3c2CCCC3)C1 | 8 | 7
COc1ccc(N(C(=O)C2Cc3cc(Cl)ccc3O2)C(C)C2CC2)cc1 (configuration not stated) | 17 | 17
CC(=O)N1CCN(c2ncccc2CNC(=O)CCOc2ccccc2)CC1 | 9 | 4
CS(=O)(=O)c1ccccc1S(=O)(=O)N1CCN(Cc2cc(=O)c(OCc3cccc(F)c3)co2)CC1 | -1 | 4

Pulled one by one from the list above, 2 records:
SMILES	NPYLR7 agonist	NPYLR7 agonist max-min
COc1cc(CNC(=O)C2CC2)cc(OC)c1OC	8	12
O=C(NC1CCN(c2ccccc2C(=O)NCC2CCCO2)CC1)c1ccc(C(F)(F)F)cc1 (configuration not stated)	12	31

Further records follow:
SMILES	NPYLR7 agonist	NPYLR7 agonist max-min
N#Cc1ccc(C(=O)C=Cc2cccc(O)c2)cc1	14	9
c1ccc(C(SC2=NC3CCCCC3N2)c2ccccc2)cc1 (configuration not stated)	13	14
Cc1ccc(NCN2C(=O)C3CC=CCC3C2=O)cc1Cl (configuration not stated)	-9	-12
O=C(NCc1ccccc1-n1ccnc1)c1ccc2c(c1)CCO2	-1	11
COc1ccccc1C1c2c(n[nH]c2-c2cccc([N+](=O)[O-])c2)OC(=N)C1C#N (configuration not stated)	-1	-5
CC(C)CCN(Cc1ccsc1)CC(O)COCc1ccco1 (configuration not stated)	17	23
O=C(Nc1ccccc1N1CCCCC1)N1CCN(c2cnccn2)CC1	10	7
Cc1ccc(NC(=O)CN2C(=O)CSC2c2ccc(Cl)c(Cl)c2)cc1 (configuration not stated)	19	31
Cc1ccc(C)c(S(=O)(=O)Nc2ccc(C(=O)NCC3COCCO3)cc2)c1 (configuration not stated)	12	4
CC(=O)N(CCCN(C)C)c1nc2cc3c(cc2s1)OCO3	2	1
Cc1ccc(S(=O)(=O)NC2CCN(c3ccccc3C(=O)NCc3cccnc3)CC2)cc1	-1	5
O=C(NCC1CCCCC1)c1sc2ccccc2c1Cl	3	2
CCS(=O)(=O)NC1CCN(c2ccccc2C(=O)NC(C)c2ccccc2)CC1 (configuration not stated)	1	11
Cc1ccc(-c2nc(C=Nc3ccc(C)cc3Br)c(O)o2)cc1	-4	-12
CN(Cc1csc(-c2cccs2)n1)C(=O)c1ncc[nH]1	15	10
CCc1cc(N2CCN(Cc3ccccc3)CC2)nc(SCc2cccc(C(=O)NCc3cccnc3)c2)n1	-2	-2
CCOc1ccc(C(=O)Nc2cc(C(=O)N3CCOCC3)cn(C)c2=O)cc1	-12	-13
COc1cccc(-c2cc(C(=O)Nc3ncccn3)c3ccccc3n2)c1	-5	-8
Nc1nccnc1C(=O)Nc1ccc(Cl)cc1C(=O)NCC1CC1	-6	-6
COc1cc(F)ccc1NC(=O)NCCCN1CCC(C)CC1	-9	-8
CSc1nnc2c(n1)OC(c1ccsc1)Nc1ccccc1-2 (configuration not stated)	0	-3
O=C(Nc1ccc(-c2c(-c3ccccc3)[nH]n(-c3ccccc3)c2=O)cc1)C1CC1	-2	4
COC(=O)Cn1c(SCCOc2ccccc2OC)nc2ccccc21	-4	1
COCCn1c(C)cc(O)c(C(c2ccccc2F)N2CCC(C)CC2)c1=O (configuration not stated)	12	5
Cc1nc(-c2ccccc2)c(C(=O)N(C)C(C)c2ccon2)s1 (configuration not stated)	5	4

(cont.)
SMILES	NPYLR7 agonist	NPYLR7 agonist max-min
Cc1csc2nc(O)c(C(=O)NCCc3ccccc3)c(=O)n12	-2	47
C=CCNC(=O)c1c(N)sc2nc3ccccc3nc12	7	3
COCCN(CC(=O)N(CCc1c[nH]c2ccccc12)Cc1ccc(OC)c(OC)c1)C(=O)Nc1ccc(Br)cc1	21	23
Oc1ccccc1C1=NNC(c2ccccc2)C1 (configuration not stated)	1	-4
CCOC(=O)C1(Cc2ccccc2Cl)CCN(C(=O)CCc2c(C)noc2C)CC1	-1	8
Cc1cc(S(=O)(=O)Nc2ccccc2-c2nnc3n2CCCCC3)ccc1Br	-4	-6
Cc1ccsc1CN(Cc1ccc(F)cc1)C(=O)CN(C(=O)Nc1ccc(Cl)cc1Cl)C1CC1	14	18
COCCOc1ccc(CCC(=O)N2CCN(c3ccccn3)CC2)cc1NS(=O)(=O)c1ccc(Cl)cc1	-15	-19
O=c1ccc(-c2ccccc2)nn1CCCNS(=O)(=O)c1ccccc1C(F)(F)F	-3	-1
COc1ccc(-c2cc(C(=O)Nc3ccccc3F)n(-c3cccc(Cl)c3)n2)c(OC)c1	-2	10
O=C(O)c1ccc(Cn2cc(/C=C\[N+](=O)[O-])c3ccccc32)o1	-1	-3
COCCN1CCN(C(=O)c2cn(CCOC)cc3c(=O)n(-c4ccccc4)nc2-3)CC1	-1	-6
CCOC(=O)c1c(NC(=O)C(C)(C)C)sc(C)c1C	-8	-8
CCn1nc(C)cc1C(=O)N(CC1CCCO1)c1nc2c(OC)ccc(OC)c2s1 (configuration not stated)	3	10
CCC(CC)NC(=O)c1nc(-c2ccc(Cl)cc2)oc1C	1	-1
O=C(COc1ccc(Br)cc1)Nc1nnc(-c2ccc(Cl)cc2)o1	2	20

Entries of single compounds, quoted from the list. Screens in order: NPYLR7 agonist	NPYLR7 agonist max-min
CCn1nc(C)cc1C(=O)N(CC1CCCO1)c1nc2c(OC)ccc(OC)c2s1 (configuration not stated) reads 3	10
Cc1ccsc1CN(Cc1ccc(F)cc1)C(=O)CN(C(=O)Nc1ccc(Cl)cc1Cl)C1CC1 reads 14	18
C=CCNC(=O)c1c(N)sc2nc3ccccc3nc12 reads 7	3
